Assay outcomes: PubChem, National Center for Advancing Translational Sciences (NCATS)
CtBP-E1A blk = qHTS Assay for Inhibitors of the CtBP/E1A Interaction. CtBP / adenovirus E1A interaction (AlphaScreen). AlphaScreen GST-E1A/His-CtBP binding, 1536-well; stronger effect = lower value; control for the full effect not named in the record. activity change, % (no concentration beside the values). 0.49% of 340,000 active; in the data active means activity change below about -65%; inconclusive means about -30% to -65%; inactive means above about -30%; also: % is scaled to controls: 0 for no effect and ±100 for the full control effect; compound concentration not given in the record
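In 5 uL wells, 23 nL compound meets equimolar GST-E1A and His-CtBP (5X stock 125 nM each) for 2 h, 37 °C. Beads (5X, 50 ug/mL) then 1 h, 37 °C, dark.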
D2 ag = Beta-Arrestin HTS for Positive Allosteric Modulators of the Human D2 Dopamine Receptor: Agonists | D(2) dopamine receptor (Homo sapiens), P14416 | DiscoveRx PathHunter D2 beta-arrestin, luminescence, 90 min; 100% = 57 uM dopamine signal | activation, % (concentration not given with the values) | 0.084% of 360,000 active; in the data active = activation above about 40%; inconclusive = about 15% to 40%; inactive = below about 15%; also: compound concentration not given in the record; the text of the record calls up to 30% inactive
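Agonist mode: compounds alone added to overnight-plated D2 PathHunter cells for 90 min at 37 C, with 57 uM final dopamine (EC100) defining full response. Beta-arrestin recruitment detected by chemiluminescent reagent, read after 1 h at ambient temperature.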
gsp antag = qHTS for Antagonists of gsp, the Etiologic Mutation Responsible for Fibrous Dysplasia/McCune-Albright Syndrome: qHTS | 0.4% of 340,000 active | Potency, µM (doses to about 76.9 µM), inactives show at the highest dose activity change, negative = inhibition, most hits filed as inhibitors | gsp-mutant cells, cAMP HTRF, 30 min; control for the full effect not named in the record; active = falling curve of any shape with a large fitted effect; inconclusive = falling curve, mostly with a smaller effect; inactive = flat or rising curve; cell line not stated here;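 also: intracellular cAMP measured with PDE inhibitor Ro 20-1724 present during compound exposure; potency is read from the fitted curve at half-maximal effect; % is scaled to controls: 0 for no effect and ±100 for the full control effect; nearly all actives have a fitted effect of over 65% in size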
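Cells, 2000/well, grown 16–24 h in DMEM 10% FBS with 0.5 mg/ml G418, then compounds plus […] (300 uM addition stock), 30 min at 37C. cAMP read by HTRF (cAMP-d2 and anti-cAMP antibody-K in lysis buffer) after 30 min RT.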
Six1-Eya2 blk = qHTS Assay for Inhibitors of the Six1/Eya2 Interaction | Homeobox protein SIX1 (Homo sapiens) + Protein phosphatase EYA2 (Homo sapiens), … | AID 651725, 2012 | AlphaScreen GST-Six1/His-Eya2 binding, biochemical; stronger effect = lower value; control for the full effect not named in the record | 0.56% of 360,000 active | activity change, % (test concentration not listed); in the data active = activity change below about -65%; inconclusive = about -30% to -65%; inactive = above about -30%; also: % is scaled to controls: 0 for no effect and ±100 for the full control effect; compound concentration not given in the record
Target sequence (O00167 whole entry, looked up): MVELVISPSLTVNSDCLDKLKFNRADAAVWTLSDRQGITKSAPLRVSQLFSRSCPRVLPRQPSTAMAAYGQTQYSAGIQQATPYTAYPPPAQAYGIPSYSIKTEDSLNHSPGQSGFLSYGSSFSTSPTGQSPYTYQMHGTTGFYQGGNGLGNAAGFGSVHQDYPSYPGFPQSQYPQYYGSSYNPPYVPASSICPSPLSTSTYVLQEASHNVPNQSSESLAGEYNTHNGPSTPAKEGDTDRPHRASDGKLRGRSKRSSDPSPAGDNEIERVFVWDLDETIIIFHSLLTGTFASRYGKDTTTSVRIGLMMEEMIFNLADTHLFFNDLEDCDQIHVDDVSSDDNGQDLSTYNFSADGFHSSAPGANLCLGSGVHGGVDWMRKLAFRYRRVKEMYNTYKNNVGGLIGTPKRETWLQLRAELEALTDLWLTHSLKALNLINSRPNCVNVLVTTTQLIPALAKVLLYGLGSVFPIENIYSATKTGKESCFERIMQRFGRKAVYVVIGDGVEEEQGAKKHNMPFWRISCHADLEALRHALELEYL
Target sequence (Q15475 whole entry, looked up): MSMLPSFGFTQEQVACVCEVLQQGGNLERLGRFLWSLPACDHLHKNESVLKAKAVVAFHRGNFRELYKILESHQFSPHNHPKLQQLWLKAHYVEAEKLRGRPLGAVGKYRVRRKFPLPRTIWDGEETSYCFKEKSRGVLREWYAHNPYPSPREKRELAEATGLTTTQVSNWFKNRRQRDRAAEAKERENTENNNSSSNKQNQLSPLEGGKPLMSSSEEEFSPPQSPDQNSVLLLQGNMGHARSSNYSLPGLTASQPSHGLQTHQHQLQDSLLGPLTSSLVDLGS
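AlphaScreen with GST-Six1 and His-Eya2 (5X mix: 250 nM and 500 nM), glutathione donor and nickel acceptor beads; buffer 50 mM Tris pH 8.0, 300 mM NaCl, 1 mM TCEP; 1 h at 37 C in the dark.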
gsp ag = qHTS for Agonist of gsp, the Etiologic Mutation Responsible for Fibrous Dysplasia/McCune-Albright Syndrome: qHTS; gsp mutant cells, cAMP HTRF, 30 min; control for the full effect not named in the record; Potency, µM (top dose mostly 76.9 µM), without a hit: at the top dose activation (cAMP increase), actives largely listed as activators; 0.13% of 340,000 active; AID 624287, 2012; active = well fitted activation curve with a large enough effect; inconclusive = small, poorly fitted or top-dose-only effect, or another doubt; inactive = no such curve, though single readings can be large or run the other way; cell line not stated here;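 also: phosphodiesterase inhibitor Ro 20-1724 added with compounds to block cAMP breakdown; potency is read from the fitted curve at half-maximal effect; nearly all actives have a fitted effect of over 60% in size; about a fifth of the inactives were tested at one dose only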
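Cells stably selected in G418 were plated at 2000/well, grown 16-24 hr, then given compounds in DMSO with the PDE inhibitor […] (300 uM solution added) for 30 min at 37C; cAMP was read by HTRF.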
D2 PAM = Beta-Arrestin HTS for Positive Allosteric Modulators of the Human D2 Dopamine Receptor: Potentiators; D(2) dopamine receptor (Homo sapiens), P14416; DiscoveRx D2 beta-arrestin cells, luminescence, 90 min; 100% = 57 uM dopamine signal; potentiation, % (concentration not given with the values); 0.23% of 360,000 active; AID 624464, 2012; active = potentiation of 50% or more; inconclusive = 30% to 50%; inactive = 30% or less;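 also: compound concentration not given in the record; tested on top of an EC20 dose of dopamine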
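PathHunter beta-arrestin assay in DiscoveRx D2 cells. Compounds were added with an EC20 of dopamine (50 nM final) for 90 min at 37 deg C. Luminescence was read 1 h after detection reagent, with 57 uM dopamine as the EC100 control.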
* marks the source's active call; other numbers are inactive results; ? = inconclusive; . = no result given; [ ] = another dose, or the depositor's remark.

SMILES	CtBP-E1A blk	D2 ag	gsp antag	Six1-Eya2 blk	gsp ag	D2 PAM
COc1ccc(/C=N/Nc2ccccn2)cc1OC	-6	0.8	2%	-6	-12%	3
COc1ccc(NC(=O)c2ccc(NCCN3C(=O)CCC3=O)c([N+](=O)[O-])c2)cc1	-20	-4.4	.	5	1%[15.4 µM]	-9
CC1CCN(S(=O)(=O)c2ccc3c(c2)N(CC(=O)NCCCN2C(C)CCCC2C)C(=O)CO3)CC1 (stereo not drawn)	5	1.1	6%	0	?	-3
Cc1nc(NC(=O)/C=C/c2ccc(Cl)cc2Cl)sc1C(=O)N(C)C	1	-0.6	5%	2	25%	-17
CCC(=O)c1ccc(OCC(=O)Nc2ccc3c(c2)OCCO3)cc1	-14	-1.5	4%	18	-4%[15.4 µM]	-25
CC(C(=O)NC(N)=O)N1C(=O)NC(c2ccccc2)(c2ccccc2)C1=O (stereo not drawn)	7	-2.3	9%	-1	0%	-2
Cc1ccc(NCC(=O)Nc2cccc(S(=O)(=O)N(C)C)c2)c(Cl)c1	6	-4.2	4%	-5	-1%[15.4 µM]	-8
COc1cccc(C2C(C#N)=C(N)N(N(C)C)C3=C2C(=O)CC(C)(C)C3)c1OC (stereo not drawn)	-9	-2.6	-12%	-11	32%	-3
O=C(N/N=C/C1CC2CCC1C2)C1CC1 (stereo not drawn)	4	-0.2	-4%	12	-15%	-1
Clc1ccc(/C=N/N2CCCCC2)cc1	.	-3.8	-2%	-17	-2%	-20
O=C(CN1CCN(c2ccc(Cl)cc2)CC1)NCc1cccs1	-16	-0.2	10%	-6	48%	-6
CC(C)OP(=O)(c1ccc(N(C)C)cc1)C(Nc1ccccc1)c1ccccc1 (stereo not drawn)	-13	-3.6	?	-11	10%[15.4 µM]	-9
CCc1nc(SCC(=O)Nc2ccc3c(c2)OCCO3)c2oc3ccccc3c2n1	5	-5.0	-5%	1	?	-3
CCN1CCN(C(=O)C2CCC(=O)N(CCCN3CCCC3=O)C2)CC1 (stereo not drawn)	4	-0.2	-9%	5	12%	2
CC(=O)N1c2ccccc2C(=O)C1N(C)c1ccc(C)cc1 (stereo not drawn)	1	9.6	0%	-5	-2%	3

An excerpt from above, showing only D2 PAM, Six1-Eya2 blk and D2 ag.
Structure	D2 PAM	Six1-Eya2 blk	D2 ag
COc1cccc(C2C(C#N)=C(N)N(N(C)C)C3=C2C(=O)CC(C)(C)C3)c1OC (stereo not drawn)	-3	-11	-2.6
O=C(N/N=C/C1CC2CCC1C2)C1CC1 (stereo not drawn)	-1	12	-0.2
Clc1ccc(/C=N/N2CCCCC2)cc1	-20	-17	-3.8
O=C(CN1CCN(c2ccc(Cl)cc2)CC1)NCc1cccs1	-6	-6	-0.2
CC(C)OP(=O)(c1ccc(N(C)C)cc1)C(Nc1ccccc1)c1ccccc1 (stereo not drawn)	-9	-11	-3.6
CCc1nc(SCC(=O)Nc2ccc3c(c2)OCCO3)c2oc3ccccc3c2n1	-3	1	-5.0
CCN1CCN(C(=O)C2CCC(=O)N(CCCN3CCCC3=O)C2)CC1 (stereo not drawn)	2	5	-0.2

(list continues)
SMILES	CtBP-E1A blk	D2 ag	gsp antag	Six1-Eya2 blk	gsp ag	D2 PAM
CSc1ccc(CN2CCC2(C)C(=O)Nc2ccc3c(c2)OCO3)cc1 (stereo not drawn)	?	0.8	.	-24	.	-16
Cc1cc(N2CCC(C)CC2)nc2cccc(O)c12	0	-3.6	-4%	-6	-12%	4
Nn1cnnc1SCC(=O)Nc1ccc(C2CCCCC2)cc1	8	1.0	3%	-3	-5%	-7
C[C@]12CC[C@@H]3c4ccc(O[C@@H]5O[C@H](C(=O)O)[C@@H](O)[C@H](O)[C@H]5O)cc4CC[C@H]3[C@@H]1C[C@@H](O)[C@@H]2O	5	-5.6	2%	-2	.	-9
CS(=O)(=O)N(Cc1ccc(C(=O)NCc2ccco2)cc1)c1ccccc1	2	-1.7	-6%	0	-35%[inhibitor]	8
CCOc1ccc(NC(=O)CCC(=O)c2ccc(F)cc2)cc1	.	-0.6	0%	5	23%	-6
COc1ccc(C(C(=O)NC(C)(C)C)N(Cc2ccc(C)cc2)C(=O)CCC(=O)Nc2cc(C)on2)cc1 (stereo not drawn)	.	-7.3	1%	-26	-10%	-9
COc1ccc(CN2C(=O)CSC2c2ccccn2)cc1 (stereo not drawn)	7	-0.3	-18%	0	14%[15.4 µM]	-12
CCOC(=O)c1c(NC(=O)CC)sc2c1CCN(Cc1ccccc1)C2	0	-5.7	-14%	-2	?	-17
CC(/C=N/NC(=O)c1cccc([N+](=O)[O-])c1)=C\c1ccccc1	0	-1.9	4%	1	6%	-23
Cc1ccc(-c2nnc(Nc3ccc4c(c3)OCO4)c3ccccc23)cc1S(=O)(=O)NC(C)C	5	-6.3	-10%	?	-8%[15.4 µM]	-4
CCOC(=O)c1ccccc1NC(=O)Cc1ccc(OC)c(S(=O)(=O)N2CCOCC2)c1	-12	0.1	-11%	-15	?	-1
O=[N+]([O-])c1ccc(OCc2cnc(Cl)s2)c([N+](=O)[O-])c1	-11	5.9	.	10	5%[15.4 µM]	0
O=C(Nc1cccc(-c2cn3ccccc3n2)c1)C1CC1	0	-0.4	-7%	-3	-4%	-12
COc1cccc(/C=N/NC(=O)CO/N=C(\C)c2cccs2)c1OC	6	-5.2	2%	-4	-32%[inhibitor]	-24
Cc1cc(Cl)c(OCCN2C(=O)NC(C)(C)C2=O)c(Br)c1	1	-1.9	1%	-1	-14%	-7
NC(CCc1ccccc1)c1csc(NC(=O)Nc2cccc(C(F)(F)F)c2)n1 (stereo not drawn)	-3	2.0	.	2	.	-6
COCCNC(=O)C(=O)NNC(=O)COc1ccc(OC)cc1	.	3.8	-16%	1	-4%	-7
C/C(=C\COc1ccc2ccc(=O)oc2c1)CC[C@@H](O)C(C)(C)O	3	-0.6	-11%	2	.	-1
CN(CCc1ccccn1)C(=O)CCC1CCCN(Cc2ccccc2OC(F)F)C1 (stereo not drawn)	3	-0.2	5%	-4	-1%	-1
CCCCSCCCNC(=O)c1ccc(CS(=O)(=O)c2ccccc2OC)o1	2	1.1	1%	-2	?	-13
O=C(Nc1ncccn1)c1ccc([N+](=O)[O-])cc1[N+](=O)[O-]	.	?	10%	-2	?	22
Cc1ccccc1-n1nnnc1SCc1csc(-c2ccccc2)n1	28	-1.8	?	14	7%	9
O=C(CN1CCOCC1)NNc1c2ccccc2nc2ccccc12	-2	-3.8	?	-13	10%	-4
COCCCn1c(=O)c2sccc2n2c(CCCC(=O)NCC3CCCO3)nnc12 (stereo not drawn)	3	4.3	11%	0	?	3
O=C(CNC(=O)C12CC3CC(CC(C3)C1)C2)N1CCCC(C(F)(F)F)C1 (stereo not drawn)	3	-3.8	.	-1	-4%	-16
CCc1ccccc1NC(=O)C(Cc1ccccc1)c1nn[nH]n1 (stereo not drawn)	.	-1.7	-5%	7	?	-3
CCOC(=O)c1ccc(NC(=S)N2CCSC2c2ccc(OC)cc2)cc1 (stereo not drawn)	3	-5.2	1%	-9	-48%[inhibitor]	-11
O=C(NC1CCCCC1)Sc1ccc(Cl)cc1	2	-1.6	8%	-3	?	15
O=C(CN1C(=O)NC2(CCCC2)C1=O)NCc1ccc(Cl)cc1	-12	-3.7	13%	-3	7%	-3

Entries of single compounds, quoted from the list:
Cc1cc(Cl)c(OCCN2C(=O)NC(C)(C)C2=O)c(Br)c1 is entered as CtBP-E1A blk = 1; D2 ag = -1.9; gsp antag = 1%; Six1-Eya2 blk = -1; gsp ag = -14%; D2 PAM = -7
O=C(CN1CCOCC1)NNc1c2ccccc2nc2ccccc12 is entered as CtBP-E1A blk = -2; D2 ag = -3.8; gsp antag = ?; Six1-Eya2 blk = -13; gsp ag = 10%; D2 PAM = -4

The list goes on.
SMILES	CtBP-E1A blk	D2 ag	gsp antag	Six1-Eya2 blk	gsp ag	D2 PAM
C=CCOc1ccccc1/C=c1\sc2nc(=O)c(C)nn2c1=O	?	-1.5	-2%	?	-3%	-9
CN1CCN(S(=O)(=O)c2ccc(Br)s2)CC1	-9	-0.2	8%	5	0%	-2
CCN(CC)C1CCN(C(=O)c2cc(COc3ccc(F)cc3Cl)on2)C1 (stereo not drawn)	2	-3.4	12%	0	0%	-18
CCOc1cnc(-c2ccc(Cl)cc2)o1	3	-1.8	2%	-2	9%	-10
COc1ccc(/C=C(/NC(=O)c2ccccc2)C(=O)N2CCOCC2)cc1OC	7	0.0	1%	6	23%	5
Cc1cccc(Nc2nc(N)nc(-c3oc4ccccc4c3C)n2)c1	-2	2.8	0%	-2	-7%[15.4 µM]	-2
CCN(CC)S(=O)(=O)c1ccc(N2CCOCC2)c(NC(=O)Cc2cccc3ccccc23)c1	-4	-0.2	11%	-14	9%	-2
Cc1ccc(COc2ccc(/C=N/O)cc2)cc1	5	-0.2	2%	-6	-36%[inhibitor]	-13
COc1cc(/C=N/n2nnnc2Nc2ccccc2)cc(OC)c1OC	?	-1.5	-3%	?	3%	1
COc1ccc(CCNC(=O)CSc2nnc3ccccn23)cc1	4	0.7	6%	-3	0%[15.4 µM]	-3
O=C(CSc1ccccn1)N1CCc2ccccc21	-6	4.2	7%	9	1%[15.4 µM]	-4
CC1CCCCC12NC(=O)N(CC(=O)N1CCN(S(=O)(=O)/C=C/c3ccccc3)CC1)C2=O (stereo not drawn)	.	-2.9	-11%	3	-12%	-3
Cc1cc(Cl)c(S(=O)(=O)NCc2ccncc2)cc1OCC(N)=O	3	0.0	2%	1	-3%	-9
O=C(COC(=O)Cn1cnc2ccccc2c1=O)Nc1ccc(Cl)c(C(F)(F)F)c1	8	-2.7	-15%	5	-63%[inhibitor]	-5
CCOC(=O)CC1C(=O)NCCN1C1CCCC1 (stereo not drawn)	9	-5.2	2%	4	-4%[15.4 µM]	-4
